Ecoli growth: blocks Escherichia coli growth. OD600, 23 h; hits give low values. OD600 absorbance (test concentration not listed). hit rate 0.21% among 330,000;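 active = OD600 absorbance below the run mean of sample wells minus 3.6 SD, in any replicate, cut at about 0.56 in these data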;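 note: stock transfer was 300 nL into about 60 µL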
Vif TR-FRET: HIV-1 Vif–A3G interaction blockers – biochemical, TR-FRET, GST-Vif 1-94, biotin-A3G peptide, dose response retest, primary screen (AID 1117319); inhibition, %, or IC50 in µM where a hit was titrated; hit rate 0.57% among 260,000; TR-FRET GST-Vif / biotin-A3G peptide binding; higher % means a stronger effect; test concentration not given here; strong numbers were not always called active;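 active = above the screen mean plus three standard deviations and confirmed in dose response; inconclusive = results disagree or hit not tested in dose response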;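 note: Vif residues 1-94 fused to GST binding biotinylated APOBEC3G peptide 110-148; 0% = full assay without inhibitor and 100% = GST in place of GST-Vif; retest series ran down from 100 µM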
HNF4A DNA FP: change in binding of human HNF4 alpha to DNA. HNF4a-FITC DNA binding, fluorescence polarization, 1 h. activity change, % at 10 µM. hit rate 0.3% among 360,000. AID 1224865; in the data active = activity change above about 30%, passing the limit was not always enough;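 note: controls were the assay level and a saturating level of protein; the project sought stronger binding though the title names inhibitors; some compounds called inactive have numbers as strong as hits; positive values seem to mean higher polarization but the record does not say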
Target sequence (P41235 whole entry, looked up): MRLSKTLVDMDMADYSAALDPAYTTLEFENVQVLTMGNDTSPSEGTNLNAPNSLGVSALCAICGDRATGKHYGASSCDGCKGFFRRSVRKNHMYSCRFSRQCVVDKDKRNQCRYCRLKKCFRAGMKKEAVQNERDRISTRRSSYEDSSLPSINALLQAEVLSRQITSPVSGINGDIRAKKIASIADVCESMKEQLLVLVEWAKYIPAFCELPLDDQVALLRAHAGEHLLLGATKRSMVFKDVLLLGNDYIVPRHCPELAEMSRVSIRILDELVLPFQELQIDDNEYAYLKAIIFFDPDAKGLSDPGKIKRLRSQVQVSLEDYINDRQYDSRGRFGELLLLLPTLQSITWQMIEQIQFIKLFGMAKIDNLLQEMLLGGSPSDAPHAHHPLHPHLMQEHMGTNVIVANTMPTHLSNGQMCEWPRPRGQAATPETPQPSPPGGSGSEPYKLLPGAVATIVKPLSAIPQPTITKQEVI
RanGTP-Impb inh: inhibitors of RanGTP-importin-beta interaction, primary screen, biochemical, FRET, CFP-Ran, YFP-importin-beta, homogeneous; cell-free CFP-Ran/YFP-importin-beta FRET ratio; inhibition, % (test concentration not listed); hit rate 1.1% among 300,000;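 active = most replicates above 15%; inconclusive = exactly half above 15%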;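 note: 0% = DMSO wells and 100% = Ran loaded with GDP instead of GTP; wells of about 40 µL received 100 nL stock; the first replicate is given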
FGF22 binding: shifts melting point of recombinant human FGF22; Q9HCT0; calls only at 9.99 µM; hit rate 1.5% among 340,000; recombinant FGF22 thermal shift, SYPRO orange fluorescence; percent of sucrose octasulfate shift, DMSO zero;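 active = melting point raised past a set limit in the mean and every replicate; inconclusive = no clear call; three in four hits are not shown here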
Target sequence (Q9HCT0 whole entry, looked up): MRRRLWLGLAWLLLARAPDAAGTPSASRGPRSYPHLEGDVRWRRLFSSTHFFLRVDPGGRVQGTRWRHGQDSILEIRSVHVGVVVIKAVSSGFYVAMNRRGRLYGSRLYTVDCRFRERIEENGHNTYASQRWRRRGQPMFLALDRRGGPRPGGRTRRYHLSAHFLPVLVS
MLL AF4-AF9 inh: blocks AF4 peptide binding to human AF9; P42568; AlphaScreen, biotin-AF4 peptide binding to FLAG-AF9; inhibition, % at 10 µM; hit rate 0.47% among 350,000;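 active = every replicate reaching a set inhibition limit, whatever the replicate mean, cut at about 25% in these data; inconclusive = mean inhibition reaches that limit but some replicates miss it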;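 note: 0% = plate neutral control median and 100% = total signal loss; the record names both 10 and 1 µM as test concentration; the first replicate is given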
Numbers without * were called inactive; i = inactive; ? = inconclusive; . = no result given; & = joins results of further samples. An excerpt; count on the stated rates, not on these rows.

The line under a structure holds: HNF4A DNA FP | Vif TR-FRET | MLL AF4-AF9 inh | Ecoli growth | FGF22 binding | RanGTP-Impb inh
1: COC(=O)C1=C(c2ccccc2)CC2CCC1N2C(=O)NC1CCCCC1 (centres undefined)
→ . | . | . | 0.68 | . | .
2: COC(=O)C1=C(c2cc3ccccc3s2)CC2CCC1N2C(=O)NC(C)C (centres undefined)
→ . | . | . | 0.67 | . | .
3: CC(=O)[C@@]1(O)CCC2C3CC=C4CC(O)CC[C@]4(C)C3CC[C@@]21C (some centres undefined)
→ . | . | . | 0.68 | . | .
4: COC1CC=C2CCN3CCC4=C(CC(=O)OC4)[C@]23C1 (some centres undefined)
→ . | . | . | 0.71 | . | .
5: COC(=O)C1=C(c2ccc(OCc3ccccc3)cc2)CC2CCC1N2C(=O)NCCN1CCOCC1 (centres undefined)
→ . | . | . | 0.7 | . | .
6: COC(=O)C1=C(c2ccc(Cl)c(C(F)(F)F)c2)CC2CCC1N2C(=O)NCc1ccc2c(c1)OCO2 (centres undefined)
→ . | . | . | 0.68 | . | .
7: COC(=O)C1=C(c2cccc(C#N)c2)CC2CCC1N2C(=O)N1CCCC1 (centres undefined)
→ . | . | . | 0.7 | . | .
8: COC(=O)C1=C(c2ccc(S(C)(=O)=O)cc2)CC2CCC1N2C(=O)NCCCOC(C)C (centres undefined)
→ . | . | . | 0.64 | . | .
9: COC(=O)C1=C(c2ccc(S(C)(=O)=O)cc2)CC2CCC1N2C(=O)NC1CC1 (centres undefined)
→ . | . | . | 0.69 | . | .
10: CC1CCCC(=O)CCCC=Cc2cc(O)cc(O)c2C(=O)O1 (centres undefined)
→ . | . | . | 0.67 | . | .
11: COC(=O)C1=C(c2ccc(OC)c(OC)c2)CC2CCC1N2C(=O)NCCc1ccccc1 (centres undefined)
→ . | . | . | 0.71 | . | .
12: COC(=O)C1=C(c2ccc(F)cc2F)CC2CCC1N2C(=O)N1CCCCC1 (centres undefined)
→ . | . | . | 0.64 | . | .
13: C[N+]1(C)CCc2cc3c(cc2C1C1OC(=O)c2c1ccc1c2OCO1)OCO3 (centres undefined)
→ . | . | . | 0.71&0.66 | . | .
14: CC(=NN1CCCCCC1)c1c(O)n(-c2ccc(C)cc2)c(=O)[nH]c1=O
→ . | . | . | 0.72 | . | .
15: C=C(C)C1CNC(C(=O)O)C1CC(=O)O (centres undefined)
→ . | . | . | 0.71 | . | .
16: COc1cc(C=C2C(=O)NC(=O)N(c3ccccc3)C2=O)cc(OC)c1OC
→ . | . | . | 0.71 | . | .
17: CCCCCCC(C)(C)c1ccc(C2CC(O)CCC2CCCO)c(O)c1 (centres undefined)
→ . | . | . | 0.68 | . | .
18: COC(=O)C1=C(c2ccc(OC)c(OC)c2)CC2CCC1N2C(=O)NCc1cc(C)oc1C(F)(F)F (centres undefined)
→ . | . | . | 0.68 | . | .
19: COC(=O)C1=C(c2cccc(OCc3ccccc3)c2)CC2CCC1N2C(=O)NC1CCN(Cc2ccccc2)CC1 (centres undefined)
→ . | . | . | 0.69 | . | .
20: COC(=O)C1=C(c2ccc(OC(F)(F)F)cc2)CC2CCC1N2C(=O)N1CCCCC1 (centres undefined)
→ . | . | . | 0.67 | . | .
21: COC(=O)C1=C(c2c(C)noc2C)CC2CCC1N2C(=O)N1CCC(O)CC1 (centres undefined)
→ . | . | . | 0.65 | . | .
22: COC(=O)C1=C(c2ccc(F)cc2OCc2ccccc2)CC2CCC1N2C(=O)NCCOc1ccc(OC)cc1 (centres undefined)
→ . | . | . | 0.69 | . | .
23: CCC(C(N)=O)N1CCCC1=O (centres undefined)
→ . | . | . | 0.65 | . | .
24: COC(=O)C1=C(c2ccc(S(C)(=O)=O)cc2)CC2CCC1N2C(=O)N1CCCCC1 (centres undefined)
→ . | . | . | 0.63 | . | .
25: O=C1NC(=O)N(c2ccc3c(c2)OCO3)C(=O)C1=Cc1ccc(N2CCCC2)o1
→ . | . | . | 0.69 | . | .
26: CCCN1CCC2c3cc(O)ccc3CCC21 (centres undefined)
→ . | . | . | 0.67 | . | .
27: CCCNC(=O)N1C2CCC1C(C(=O)OC)=C(c1cc3ccccc3s1)C2 (centres undefined)
→ . | . | . | 0.69 | . | .
28: COC(=O)C1=C(c2cc3ccccc3o2)CC2CCC1N2C(=O)NCc1ccco1 (centres undefined)
→ . | . | . | 0.68 | . | .
29: CCCNC(=O)N1C2CCC1C(C(=O)OC)=C(c1c(C)noc1C)C2 (centres undefined)
→ . | . | . | 0.66 | . | .
30: COC(=O)C1=C(c2ccccc2)CC2CCC1N2C(=O)NCCCOC(C)C (centres undefined)
→ . | . | . | 0.71 | . | .
31: COC(=O)C1=C(c2ccc(F)cc2F)CC2CCC1N2C (centres undefined)
→ . | . | . | 0.64 | . | .
32: COC(=O)C1=C(c2cccc(C#N)c2)CC2CCC1N2C(=O)NCc1ccc(F)cc1 (centres undefined)
→ . | . | . | 0.72 | . | .
33: C=C(C=O)CC1CC(O)[C@]2(C)OC3CC4OC5C[C@]6(C)O[C@]7(C)CCC8OC9C[C@]%10(C)OC%11C(C)=CC(=O)OC%11CC%10OC9CC(C)C8OC7CC6O[C@]5(C)CC5OC5C4OC3CC2O1 (some centres undefined)
→ . | . | . | 0.7 | . | .
34: COC(=O)C1CC1C(NP(=O)(c1ccccc1)c1ccccc1)c1ccccc1 (centres undefined)
→ . | . | . | 0.71&0.68 | . | .
35: C#C[C@]1(O)CCC2C3CCC4=Cc5nc6nc7ccccc7n6cc5C[C@]4(C)C3CC[C@@]21C (some centres undefined)
→ . | . | . | 0.66 | . | .
36: COC(=O)C1=C(c2cccc(NC(C)=O)c2)CC2CCC1N2C (centres undefined)
→ . | . | . | 0.69 | . | .
37: COC(=O)C1=C(c2ccc(S(C)(=O)=O)cc2)CC2CCC1N2C(=O)NCCS(C)=O (centres undefined)
→ . | . | . | 0.69 | . | .
38: COC(=O)C1=C(c2cc3ccccc3s2)CC2CCC1N2C(=O)N1CCOCC1 (centres undefined)
→ . | . | . | 0.72 | . | .
39: CCCCOP(=O)(OCCCC)C(C#N)=C(C)O
→ . | . | . | 0.72 | . | .
40: COC(=O)C1=C(c2ccc(Cl)c(C(F)(F)F)c2)CC2CCC1N2C(=O)N1CCCC1 (centres undefined)
→ . | . | . | 0.69 | . | .
41: COC(=O)C1=C(c2ccc(S(C)(=O)=O)cc2)CC2CCC1N2C (centres undefined)
→ . | . | . | 0.71 | . | .
42: O=P1(Oc2ccccc2)CC=CC(COCc2ccccc2)O1 (centres undefined)
→ . | . | . | 0.6 | . | .
43: CC(Cl)=CCC1(CN2CCCC2=O)C(=O)NC(=O)NC1=O
→ . | . | . | 0.7 | . | .
44: COC(=O)C1=COC(C)C2CN3CC[C@]4(C(=O)Nc5ccccc54)C3CC12 (some centres undefined)
→ . | . | . | 0.71 | . | .
45: COc1cc2c(cc1OC)-c1c(OC)c(OC)cc3c1C(C2)[N+](C)(C)CC3 (centres undefined)
→ . | . | . | 0.71 | . | .
46: COC(=O)C1=C(c2ccccc2OCc2ccccc2)CC2CCC1N2C(=O)NCc1ccc(F)cc1 (centres undefined)
→ . | . | . | 0.67 | . | .
47: CN1C(=O)C(Cc2c[nH]c3ccccc23)C(=O)N(C)C1=O
→ . | 13% | . | . | . | .
48: O=C1NC(=O)C2=Cc3ccc(O)cc3OC2(O)N1 (centres undefined)
→ . | 5% | . | . | . | .
49: Cc1nnc2n1-c1ccc(Cl)cc1C(c1ccccc1)=NC2
→ . | -3% | . | . | . | .
50: C[C@]12CCC(=O)C[C@@H]1CC[C@@H]1[C@@H]2CC[C@@]2(C)[C@H]1CC[C@]2(C)O
→ . | -9% | . | . | . | .

(cont.)
The line under a structure holds: HNF4A DNA FP | Vif TR-FRET | MLL AF4-AF9 inh | Ecoli growth | FGF22 binding | RanGTP-Impb inh
51: O=c1c2cc([N+](=O)[O-])ccc2nc(CN2CCOCC2)n1-c1ccccc1F
→ . | 6% | . | . | . | .
52: COc1ccc(/C=C2/C(=O)NC(=O)N(Cc3ccco3)C2=O)cc1
→ . | ? | . | . | . | 0.8
53: CS(=O)(=O)Nc1ccc(Cc2noc(-c3ccc4[nH]cc(CCN)c4c3)n2)cc1
→ . | -11% | . | . | . | 1.1
54: CN1CCN(C(=O)OC2c3nccnc3C(=O)N2c2ccc(Cl)cn2)CC1 (centres undefined)
→ . | 7% | . | . | . | 1.0
55: CCCCC1C(=O)NC(=S)NC1=O
→ . | -8% | . | . | . | 5.9
56: C[C@@H]1C[C@H]2OC(=O)C3(CO3)[C@H]2[C@H](O)[C@]2(C)C(=O)C3OC3[C@@H]12 (some centres undefined)
→ . | 4% | . | . | . | 1.1
57: CCOC(=O)c1c(/N=C/C2C(=O)NC(=S)NC2=O)sc(C)c1C
→ . | -5% | . | . | . | ?
58: CN[C@H]1C[C@H]2O[C@@](C)([C@H]1OC)n1c3ccccc3c3c4c(c5c6ccccc6n2c5c31)C(=O)NC4
→ . | 23% | . | . | . | -3.3
59: O=C1NC(=O)N(Cc2ccccc2)C(=O)/C1=C/c1cnn(-c2ccccc2)c1
→ . | -3% | . | . | . | 5.5
60: C[C@]12CC[C@@H](O)C[C@@H]1CC[C@@H]1[C@@H]2CC[C@]2(C)C(=O)[C@H](O)C[C@@H]12
→ 0.0 | . | . | . | . | .
61: CN(Cc1cccc(-c2ccncc2)c1)C(=O)Oc1ccccc1Cc1ccccc1
→ -1.4 | . | . | . | . | .
62: CC(C)C1CN1CC(O)Cn1ccnc1[N+](=O)[O-] (centres undefined)
→ -2.1 | . | . | . | . | .
63: C[C@H]1[C@@H](OS(=O)(=O)O)C[C@@H]2C[C@H]([C@@H](O)c3cc(=O)[nH]c(=O)[nH]3)NC3=NC[C@H]1N32
→ 2.0 | . | . | . | . | .
64: CCOC(=O)[C@]12Cc3cc(Cl)ccc3[C@H]1N(CC(=O)OC)C(=O)c1ccccc12
→ 4.7 | . | . | . | . | .
65: CCOC(=O)[C@]12Cc3cc(Cl)ccc3[C@H]1N(C1CCCCC1)C(=O)c1ccccc12
→ -4.3 | . | . | . | . | .
66: CC(C)CC#Cc1ccc([C@H]2[C@@H](CO)N3CCCCN(C(=O)Cc4ccccn4)C[C@H]23)cc1
→ . | . | 4.2 | . | i | .
67: O=C(Cc1ccccn1)N1CCCCN2[C@H](C1)[C@@H](c1ccc(-c3ccccc3F)cc1)[C@@H]2CO
→ . | . | -7.2 | . | i | .
68: CCCN1[C@@H]2Cn3c(cccc3=O)[C@H]1[C@@H](C(=O)N(C)C)[C@@H]2CO
→ . | . | -2.0 | . | i | .
69: N#Cc1cccc(-c2ccc([C@H]3[C@H]4CN(C(=O)Cc5ccncc5)CCCCN4[C@H]3CO)cc2)c1
→ . | . | -1.9 | . | i | .
70: O=C(O)[C@@H]1[C@@H](CO)[C@@H]2Cn3c(ccc(-c4ccc(F)cc4)c3=O)[C@H]1N2CC1CCCCC1
→ . | . | 2.6 | . | i | .
71: COc1ccc(OC(=O)N(C)C[C@@H]2OCc3ccccc3-c3c(n(C)c4ccccc34)C(=O)N([C@@H](C)CO)C[C@@H]2C)cc1
→ . | . | 2.4 | . | i | .
72: C[C@@H]1CN([C@H](C)CO)C(=O)c2c(c3ccccc3n2C)-c2ccccc2CO[C@H]1CN(C)C(=O)Oc1ccccc1
→ . | . | 3.3 | . | i | .
73: N#Cc1cccc(-c2ccc([C@@H]3[C@@H](CO)N4CCCCN(C(=O)Cc5ccccc5)C[C@H]34)cc2)c1
→ . | . | -2.4 | . | i | .
74: O=C(O)[C@H]1[C@H](CO)[C@H]2Cn3c(ccc(-c4ccccc4)c3=O)[C@@H]1N2C(=O)C1CCCCC1
→ . | . | -0.5 | . | i | .
75: CCC(=O)N1[C@@H]2c3ccc(-c4cccc(F)c4)c(=O)n3C[C@H]1[C@H](CO)[C@H]2C(=O)OC
→ . | . | -0.4 | . | i | .
76: O=C(Cc1cccnc1)N1CCCCN2[C@@H](CO)[C@H](c3ccc(C#CC4(O)CCCC4)cc3)[C@@H]2C1
→ . | . | -3.1 | . | i | .
77: COCC(=O)N1[C@@H]2c3ccc(C4=CCCC4)c(=O)n3C[C@H]1[C@H](CO)[C@H]2C(=O)OC
→ . | . | -0.9 | . | i | .
78: O=C(Cc1ccccc1)N1C[C@H]2[C@@H](c3ccccc31)[C@H](CO)N2Cc1ccccc1
→ . | . | 1.9 | . | i | .
79: O=C(Cc1ccccn1)N1CCCCN2[C@H](C1)[C@H](c1ccc(-c3ccccc3)cc1)[C@@H]2CO
→ . | . | -3.0 | . | i | .

Bioassay records (PubChem)
